# Screening results from PubChem.
# NPYLR7 ag: mosquito NPYLR7 agonism | 0.15% of 270,000 active | HEK293T NPYLR7/Galpha15, GCaMP6s calcium fluorescence | activation, % at 10 µM; in the data active = activation above about 40%;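 also: 0% = vehicle and 100% = reference agonist at the receptor; some compounds past the cut are filed as inactive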
# NPYLR7 ag max-min: further read-out of NPYLR7 ag, marked with its call; activation, %; measured here: Max-Min RFU normalised activation; some inactives read as strong as hits;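 span of the calcium signal over five minutes; 0% = vehicle and 100% = native peptide agonist; compound fluorescence can raise it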
# Starred values were filed as active, the others as inactive.
SMILES,NPYLR7 ag,NPYLR7 ag max-min
Cc1nc(N)c(C#N)c(-c2ccc(Br)s2)c1C,3.5,1.9
O=C(NCCSc1ncc(-c2ccccc2)[nH]1)c1ccccc1,13.6,12.4
Cc1nc2scc(C)n2c(=O)c1NC(=O)c1ccc(S(=O)(=O)N(C)C)cc1,9.5,5.4
COc1ccc([N+](=O)[O-])cc1NCc1cccc(C(F)(F)F)c1,0.3,-0.4
O=S(=O)(c1ccc2ccccc2c1)N1CCCc2cccc(O)c21,-0.3,-4.0
COc1ccc(CC(=O)N2CCC(=O)N(C)c3ccccc3C(OC)C2)cc1 (stereo not drawn),4.5,13.5
FC(F)(F)CCc1ccnc(NCc2cccc3[nH]ccc23)n1,3.5,0.0
CC(C)=CC(=O)N(CC1CCC1)CC1CCCO1 (stereo not drawn),-3.3,-5.8
CCC(=O)N1CCOCC2(CN(Cc3ccccc3-c3ccco3)CCO2)C1 (stereo not drawn),2.4,2.5
CCC(NCc1nccn1C)c1nc(C(F)(F)F)cs1 (stereo not drawn),1.8,1.1
CCCCC(O)CN(CCC)Cc1c(CC)nn(-c2ccccc2)c1Oc1ccccc1OC (stereo not drawn),7.1,3.1
O=C(NCC1CCOCC1)C1=COC2=NC(=O)N(Cc3ccccc3C(F)(F)F)CCN12,-0.8,-4.7
O=C(O)c1coc(CN(Cc2ccco2)Cc2ccco2)n1,0.8,0.1
CCOc1c(Cl)cc(C(=O)N2CCN(S(=O)(=O)c3ccc4c(c3)CCCC4)CC2)cc1OC,-0.4,-0.2
CCN(CC)C1C(=O)Nc2ccc(C)cc2C1c1ccccc1 (stereo not drawn),2.1,29.5
O=C(CCCc1cn[nH]c1)NC1CC(=O)N(Cc2ccc(F)cc2)C1 (stereo not drawn),3.0,4.1
O=C(Cn1cnc2c(nnn2-c2ccccc2)c1=O)N1CCOCC1,6.1,5.5
Cc1cc(S(=O)(=O)ON2C(=O)c3cccc4cccc(c34)C2=O)ccc1F,-8.5,-10.7
O=C(COc1ccc(F)c(Cl)c1)NCC(=O)Nc1ccccc1Br,1.6,34.9
Cc1nc(C2CC2)ncc1C(=O)N(C)Cc1ccccc1-n1cccn1,5.1,0.7
COc1cccc(C(=O)Nc2nnc(C(C)c3ccccc3)s2)c1 (stereo not drawn),-0.5,-9.5
Cc1ccn2c3c(c(C(=O)OCc4ccccc4)c2c1)C(=O)c1ccccc1C3=O,-7.7,-13.1
CCCn1c(N)c(C(=O)CSc2nnc(N)s2)c(=O)[nH]c1=O,-0.6,-3.6
COCCN(Cc1ccc(F)cc1OC)CC1CCCN(C2Cc3ccccc3C2)C1 (stereo not drawn),4.1,-0.3
CC(C)Nc1ncccc1C(=O)N1CC(C)OC(c2ccccc2)C1 (stereo not drawn),-4.6,-3.6
CCN(CC)c1ccc(/C=N\NC(=O)CSc2nc3ccccc3n2CC)c(O)c1,3.5,6.3
CSCC[C@@H](CO)n1ccnc1-c1cc2c(cc1C)OCO2,1.8,-1.2
Cc1cccc(C2CCCN2c2nc(N(C)C)cc(C(F)(F)F)n2)c1 (stereo not drawn),7.8,6.8
COc1ccc(CN(C(=O)CCn2nnnc2C)C(C)C)c2ccccc12,13.4,-0.7
Fc1ccccc1Cn1nnc(-c2ccc(Br)cc2)n1,2.6,1.3
CN(CCNC(=O)N1CCSCC1)Cc1ccc(F)cc1,-21.1,-20.7
Cc1cc(C)n(Cc2ccc(C(=O)N3CCCC(C)C3CNC(=O)OC(C)(C)C)cc2)n1 (stereo not drawn),-4.3,-5.8
Cc1noc(CN(C)C(=O)C2(Oc3ccc(Cl)cc3)CCNCC2)n1,3.5,4.6
CC(=O)Nc1nc(C(=O)N2c3ccnn3C(C)CC2C)cs1 (stereo not drawn),6.7,5.3
Cc1ccc(C(=O)Cn2nc(-c3cccs3)c3sc(N4CCOCC4)nc3c2=O)c(C)c1,-2.1,-7.1
CSc1nc(-c2ccccc2)cc(-c2cccc3ccccc23)c1C#N,1.4,0.1

# Profiles as entered above.
# `CSCC[C@@H](CO)n1ccnc1-c1cc2c(cc1C)OCO2` as listed: NPYLR7 ag = 1.8; NPYLR7 ag max-min = -1.2
# `CCOc1c(Cl)cc(C(=O)N2CCN(S(=O)(=O)c3ccc4c(c3)CCCC4)CC2)cc1OC` as listed: NPYLR7 ag = -0.4; NPYLR7 ag max-min = -0.2

# The listing picks up, repeating the five entries before the break.
SMILES,NPYLR7 ag,NPYLR7 ag max-min
Cc1cc(C)n(Cc2ccc(C(=O)N3CCCC(C)C3CNC(=O)OC(C)(C)C)cc2)n1 (stereo not drawn),-4.3,-5.8
Cc1noc(CN(C)C(=O)C2(Oc3ccc(Cl)cc3)CCNCC2)n1,3.5,4.6
CC(=O)Nc1nc(C(=O)N2c3ccnn3C(C)CC2C)cs1 (stereo not drawn),6.7,5.3
Cc1ccc(C(=O)Cn2nc(-c3cccs3)c3sc(N4CCOCC4)nc3c2=O)c(C)c1,-2.1,-7.1
CSc1nc(-c2ccccc2)cc(-c2cccc3ccccc23)c1C#N,1.4,0.1
S=c1[nH]nc(-c2nccc3ccccc23)n1-c1cccc(Cl)c1,-11.4,-17.6
CCOC(=O)N1CCC(NCc2nc(CC)cs2)CC1,-3.9,-5.2
CCCCN(C)CCNC(=O)c1c(O)nc2c(C)cccn2c1=O,-2.0,0.1
O=C(c1cccc(Br)c1)N(Cc1ccc(OS(=O)(=O)c2ccc(F)cc2)cc1)Cc1ccco1,4.7,11.4
O=C(Nc1cccc(S(=O)(=O)NC2CC2)c1)c1cccc2cccnc12,6.5,5.7
O=C(NC(c1ccccc1)c1cnccn1)C1CCN(CCOc2ccc(F)cc2)CC1 (stereo not drawn),5.7,1.6
Cc1[nH][nH]c(=O)c1CC(=O)N(C)CC1COc2ccccc2O1 (stereo not drawn),10.7,8.6
COc1cc(-c2[nH]ncc2CN2CCc3sccc3C2)cc(OC)c1OC,-1.4,-5.5
Cc1cc(-c2ccco2)nc2cc3c(cc12)OCO3,-0.1,23.4
CCN(C(=O)c1ccccc1N1CCC(NC(=O)CCc2ccccc2)CC1)C1CCCCC1,15.5,10.2
O=C1CSC(=S)N1N=Cc1c2ccccc2cc2ccccc12,6.2,3.8
Cc1ccc(Cc2nnc(Nc3c(C)cccc3C)[nH]c2=O)cc1,18.7,10.3
CC(O)c1ccc(-c2cnc3ccccc3c2)cc1 (stereo not drawn),3.3,1.7
O=C(Nc1ccccc1)C(=O)N1CCOC(c2cccc(F)c2)C1 (stereo not drawn),1.3,-0.3
C=CCNC(=O)C=Cc1cccs1,14.4,8.8
CCCC(=O)N1N=C(c2ccc(OC)cc2)CC1c1ccc2nccnc2c1 (stereo not drawn),-0.6,16.5
Cc1cccc(C)c1NC(=O)CNC(=O)c1cc(=O)c2ccccc2o1,-1.0,-2.6
CCn1c(SC(C)C#N)nc2sc(C)c(C)c2c1=O (stereo not drawn),11.4,15.0
CC1Cc2ccccc2N1C1CCN(C(=O)c2ccc(N(C)C)cc2)CC1 (stereo not drawn),8.5,8.8
Cc1ccsc1CN(Cc1ccc2c(c1)OCO2)C(=O)CN(CCN1CCOCC1)C(=O)c1ccc(Cl)cc1,-2.6,2.4
CCC(NCc1cn(-c2ccc(OC)cc2)nc1-c1ccccc1Cl)c1ccncc1 (stereo not drawn),-5.2,-7.7
CSC(C)C(=O)Nc1ccnn1Cc1cccc(Cl)c1Cl (stereo not drawn),-25.4,-24.3
COc1ccc(CN(C)CC(O)CN2C(=O)c3ccccc3C2=O)cc1OC (stereo not drawn),-1.2,-4.4
O=C1CC(C(=O)NCc2ccccc2)c2c(nc(N3CCOCC3)[nH]c2=O)N1 (stereo not drawn),2.8,-2.6

# Overlap with the part before: four compounds; new compounds follow.
SMILES,NPYLR7 ag,NPYLR7 ag max-min
CCC(NCc1cn(-c2ccc(OC)cc2)nc1-c1ccccc1Cl)c1ccncc1 (stereo not drawn),-5.2,-7.7
CSC(C)C(=O)Nc1ccnn1Cc1cccc(Cl)c1Cl (stereo not drawn),-25.4,-24.3
COc1ccc(CN(C)CC(O)CN2C(=O)c3ccccc3C2=O)cc1OC (stereo not drawn),-1.2,-4.4
O=C1CC(C(=O)NCc2ccccc2)c2c(nc(N3CCOCC3)[nH]c2=O)N1 (stereo not drawn),2.8,-2.6
CCCCN(CC(N)=O)C(=O)/C=C(/C)c1ccc(F)cc1,11.4,6.9
CCn1ncnc1CN1CCC(c2cc(C(C)C)n[nH]2)CC1,13.9,5.6
Cc1ccc(-n2ncc(C(=O)NCC(O)c3ccc(O)cc3)c2N)cc1 (stereo not drawn),4.5,1.6
CCCCn1c(Nc2ccccc2)nc2ccccc21,-2.4,-6.2
CC=CC=CC(=O)OCCCn1c(=O)c2c(ncn2C)n(C)c1=O,-0.9,-1.9
c1c(CN2CCCCCCC2)nn2c1CNCCC2,-2.7,28.2
CC(C)(C)c1ncsc1NC(=O)CCc1ccccc1,-2.5,-3.8
CCCS(=O)(=O)c1c(Nc2ccc(OCC)cc2)sc(C(=O)c2ccccc2)c1N,-5.0,-12.6
COc1ccc(OCCCOc2ccc(Cl)cc2Cl)cc1,-6.2,4.1
N#Cc1ccc(CSCCN2c3cccc4cccc(c34)S2(=O)=O)cc1,-1.3,22.9
CCCC(O)c1nnc(Nc2cc(OC)c(OC)c(OC)c2)s1 (stereo not drawn),-0.8,-0.8
CCOc1cc(-c2cc(C(=O)O)c3[nH]c(-c4ccc(OC)cc4)nc3n2)ccc1O,-2.4,-2.7
CN(CC(=O)OCC1CCCCO1)S(=O)(=O)c1ccccc1 (stereo not drawn),-0.5,-2.6
COC(=O)NC1CCN(c2ccccc2C(=O)NCC2CCCO2)CC1 (stereo not drawn),19.0,22.3
Cc1cn2c3c(=O)n(C)c(=O)n(C)c3nc2n1CCc1ccccc1,1.1,6.7
COc1ccc(CN2CCC3(CCC(CNC(=O)c4cccnc4)O3)CC2)c2ccccc12 (stereo not drawn),-2.4,-9.0
Cc1nn(CCC#N)c2c1C(c1ccc(N(C)C)cc1)C1C(=O)CC(C)(C)CC1=N2 (stereo not drawn),0.3,-6.1
COc1ccccc1C(=O)NCc1ccccc1N1CCN(C)CC1,3.6,0.3
CSc1ccc(C(=O)CC(C)(C)C(=O)NCCc2ccccc2F)cc1,15.5,3.5
Cc1cccc(CN(CCN(C)C)Cc2ccsc2)n1,2.9,0.2
CS(=O)(=O)N1CCOC(CNC2CCC3(CCNCC3)CC2)C1 (stereo not drawn),9.0,6.2
COCCn1c(SCc2ccccc2C)nc2sc3c(c2c1=O)CCC3,-1.4,5.4
O=C(c1ccccc1F)N(CCN1CCOCC1)Cc1nccn1Cc1ccc(F)cc1,5.3,16.5
COc1ccc(CC(=O)N2CCC(c3nc(-c4ccc(Cl)cc4F)no3)CC2)cc1,0.0,-0.4
O=C1NC(=S)N/C1=C/c1cc(Cl)cc(Cl)c1O,26.3,21.9
COc1ccc(CSC(C)C(=O)NCc2ccccc2OC)cc1F (stereo not drawn),11.3,6.6
CC(=O)Nc1cccc(NC(=O)c2cc(C(C)C)n(-c3nc4ccccc4s3)n2)c1,15.4,3.9
Cc1cc(NC(=O)OCC(F)(F)F)c2ccccc2n1,-19.9,-17.6
NC(c1csc(Nc2ccc(C(=O)NCCCO)cn2)n1)C1CCCCC1 (stereo not drawn),-6.7,-12.3
COc1ccc(-c2nc(CN3CCN(c4ccccc4)C(=O)C3)c(C)o2)c(F)c1,7.7,2.1
COC(=O)c1ccc(N2C(=O)NC3CC2(C)Oc2ccc(C(=O)OC)cc23)cc1 (stereo not drawn),-4.4,-3.3
Cc1ccc(NC(=O)CC(=O)N(C)Cc2nonc2C)c(C)c1,11.5,2.9
CC(NC(C(=O)NC1CC1)c1ccc(F)cc1)c1ccc(Cl)cc1Cl (stereo not drawn),-1.9,-0.8
COc1ccccc1Oc1coc2c3c(ccc2c1=O)OCN(C1CCCC1)C3,-6.8,-14.2
Oc1[nH]c2ccccc2c1N=Nc1c(F)c(F)c(Cl)c(F)c1F,-3.7,-5.6
O=C1OC(/C=C/c2ccccc2)=NC/1=C/c1ccco1,-2.8,-3.7
CCC(CC)NC(=O)C1(S(=O)(=O)c2ccc(Br)cc2)CCCC1,-10.3,-8.9
Cc1cccc(-n2c(CNC(=O)c3ccco3)nnc2SCC(=O)N2CCCc3ccccc32)c1,13.2,11.6
Cc1ccc(-c2ccc(OCCNS(=O)(=O)c3ccccc3)nn2)cc1,-5.7,-11.7
CC(C)N1CCC(NC(=O)COc2ccc3ccccc3c2)CC1,5.5,0.1
O=C1c2cccc3c(N4CCCCC4)ccc(c23)C(=O)N1c1ccccc1,7.4,11.3
COc1cccc(CN2CCN(Cc3nc(-c4cccs4)oc3C)CC2CCO)c1 (stereo not drawn),3.0,3.9
N#Cc1ccc(Cn2cccn2)cc1,3.8,3.7
CC(C)CN1C(=O)N(C)C(=O)C12CCN(Cc1cccc(-c3ccco3)c1)CC2,14.5,1.0
O=C(NCCn1ncc2c(N3CCCC3)ncnc21)C1(c2cccs2)CCCC1,0.5,-1.5
Cc1cccc(NC(=O)N2CCN(CCCOC(c3ccc(Cl)cc3)c3ccc(Cl)cc3)CC2)c1,7.0,2.1
O=C(NCc1nnnn1-c1ccccc1)c1cccc2ccccc12,0.7,-1.7
Cc1c(NC=O)c(C(C)(C)C)cc(C(C)(C)C)c1[N+](=O)[O-],13.6,12.6
COC(=O)C(c1ccccc1)C1C=CC(NC(=O)/C=C/c2ccccc2Cl)C1 (stereo not drawn),3.8,3.0
NC(=O)C1CCCN(C(=O)C2CC2c2cccc3ccccc23)C1 (stereo not drawn),7.3,1.5
CCn1cc(C(=O)N2CCCC(N3CCN(Cc4ccc5c(c4)OCO5)CC3)C2)cn1 (stereo not drawn),8.4,2.1
CCc1cn[nH]c1C1CCN(C(=O)c2cc(C)c3nc(N)sc3c2)CC1,-0.1,-3.9
Cc1nc2c(sc3cccc(F)c32)c(=O)n1CC(=O)NCc1ccccc1,-0.3,-3.4
O=C(CCCn1cncn1)N1CCCC(Nc2ccc(F)cc2)C1 (stereo not drawn),-5.2,-7.8

# Only part of the results is shown; count on the stated rates, not on these rows.
